Vaccinia mCherry: qHTS for Stage-Specific Inhibitors of Vaccinia Orthopoxvirus: mCherry Reporter Primary qHTS | hit rate 0.63% among 310,000 | Potency, µM (highest dose often 36.5 µM), for inactives: top-dose activity change, negative = inhibition, most hits filed as inhibitors | Vaccinia virus mCherry reporter infection, fluorescence; about a quarter of the inactives have no number; active = well fitted inhibition curve with a large enough effect; inconclusive = small, poorly fitted or top-dose-only effect; inactive = no such curve, though single readings can be large or run the other way; tested in A549 cells; also: nearly all actives have a fitted effect of over 35% in size; inactives centre near -10
Vaccinia Venus: qHTS for Stage-Specific Inhibitors of Vaccinia Orthopoxvirus: Venus Reporter Primary qHTS. Vaccinia virus Venus reporter expression, fluorescence. Potency, µM (top dose mostly 36.5 µM), for the others: at the highest dose activity change, negative = inhibition, hits mostly inhibitors. hit rate 0.46% among 330,000; active means well fitted inhibition curve with a large enough effect; inconclusive means small, poorly fitted or top-dose-only effect; inactive means no such curve, though single readings can be large or run the other way; tested in A549 cells; also: nearly all actives have a fitted effect of over 30% in size; inactives centre near -10
Active calls of the source: *; i = inactive; u = inconclusive; x = not tested or not shown; & = joins results of further samples; [ ] = another dose, or the depositor's remark. % is scaled to controls: 0 for no effect and ±100 for the full control effect; potency is read from the fitted curve at half-maximal effect.

Start of the listing, in advance:
SMILES	Vaccinia mCherry	Vaccinia Venus
NS(=O)(=O)c1ccc(N2CCN(S(=O)(=O)Cc3ccccc3)CC2)nc1	i	-17%
COc1ccccc1N1C(=O)C2CC=CC(C)C2C1=O (configuration not stated)	x	-14%

This part in full, from the start:
SMILES	Vaccinia mCherry	Vaccinia Venus
NS(=O)(=O)c1ccc(N2CCN(S(=O)(=O)Cc3ccccc3)CC2)nc1	i	-17%
COc1ccccc1N1C(=O)C2CC=CC(C)C2C1=O (configuration not stated)	x	-14%
CC(=O)Nc1ccc(S(=O)(=O)Nc2cc(Cl)ccc2N2CCOCC2)cc1	-26%	-26%
COc1cc([N+](=O)[O-])cc([N+](=O)[O-])c1NC(=O)N1CCOCC1	-22%	-5%
CC(=O)Nc1ccc(S(=O)(=O)N2CCC3(CC2)CC(=O)c2ccccc2O3)cc1	i	-13%
CC(=O)NN1C(=O)/C(=C\c2ccc(Br)o2)SC1=S	99%[activator]	71%[activator]
COc1ccc(S(=O)(=O)N2CCCCCC2)cc1NS(=O)(=O)c1cc(C(=O)O)cc(C)c1C	i	-3%
CSc1ccc(/C=N/NC(=O)c2ccccc2Cl)cc1	-9%	-23%
OC1CCCC1NCc1ccnc2cc(Cl)ccc12 (configuration not stated)	-10%	-2%
COc1ccc(/C=N/Nc2ncnc3scc(-c4ccccc4)c23)cc1OC	-18%	-29%
COc1cc2c(cc1NC(=O)COc1ccc(Br)c(C)c1)oc1ccccc12	-13%	-13%
COc1ccc(S(=O)(=O)c2c(O)c3ccc(C(=O)NCc4ccc(Cl)cc4)cc3[nH]c2=O)cc1	-2%	-4%
CCCCn1c(N)c(-c2nc3ccccc3o2)c2c([N+](=O)[O-])nn(C)c(=O)c21	i	-6%
COC(=O)[C@@H]1C[C@]2(OC(=O)c3ccccc3)C=CC(=O)C[C@@H]2N1C(=O)OCc1ccccc1	i	-11%
CCSc1cc(N2CCCC2)nc(-c2ccc(F)cc2)n1	x	-1%
COCCNc1c2c(c(C#N)c3nc4ccccc4n13)CCCC2	i	-3%
Clc1ccc(C2=Nn3c(Cn4nnc5ccccc54)nnc3SC2)cc1	-15%	-17%
Cc1cccc(CN2CCC(n3nccc3NC(=O)CCCc3ccccc3)CC2)c1	-18%	-17%
COc1cc(C(=O)Nc2ccc(NC(=O)C3CC3)nc2)cc(OC)c1OC	-7%	-2%
O=C(CNS(=O)(=O)c1ccc(Br)s1)N1CCC2(CC1)OCCO2	x	0%
CC1(C)CC(=O)C2=C(C1)Nc1ncnn1C2c1ccccn1 (configuration not stated)	1%	0%
Cc1n[nH]c(=O)c2c(NC(=O)CSc3nnc(-c4ccncc4)n3C)oc(C)c12	-10%	-12%
CC(=O)c1cc2c(cc1NS(=O)(=O)c1ccccc1Br)OCO2	-11%	-2%
COc1ccc(Cl)cc1NC(=O)CN(C)C(=O)Cc1ccsc1	-2%	-12%
CN1CCN(CCNC(=O)Nc2ccccc2[N+](=O)[O-])CC1	-6%	3%
O=C(CSc1nnc(-c2ccncc2)o1)Nc1cc(F)ccc1F	i	-17%
c1ccc2oc(SCc3cn4ccccc4n3)nc2c1	-21%	-17%
CC(C)c1nc(C#N)c(N2CCOCC2)o1	i	-19%
COc1ccc(S(=O)(=O)N2CCC(C(=O)NCCC(=O)Nc3cccc(Cl)c3)CC2)cc1	11%[7.34 µM]	0%[7.34 µM]
CC(C)C(=O)NC(c1cccc([N+](=O)[O-])c1)c1c(O)ccc2ccccc12 (configuration not stated)	-8%	-8%
Cc1ccc(C)c(Cn2c(=O)n(C(C)C)c(=O)c3oc4ccccc4c32)c1	-15%	-16%
COCCN(C(=O)Nc1ccc(OC)cc1OC)C1CCN(C(C)C)CC1	-11%	-25%
CCOC(=O)c1cnn(-c2ccccc2)c1NC(=O)c1ccccc1C	-8%	-8%
CCn1cnc2c(=O)oc3ccc(S(=O)(=O)Nc4ccc(OC)cc4)cc3c21	-3%	-3%
CCc1cccc(CC)c1NC(=O)CSc1nc2ccc(N3C(=O)C4C5C=CC(C5)C4C3=O)cc2s1 (configuration not stated)	u	u
OC(C#CCN1CCOCC1)(c1ccccc1)C1CCCC1 (configuration not stated)	x	-12%
CCNc1ccc(C(=O)OCC(=O)NCCN2C(=O)CSC2=O)cc1[N+](=O)[O-]	-9%	-16%
O=C1CCN(Cc2ccccc2)CCN1[C@H](COc1ccccc1)Cc1ccccc1	-2%	-4%&-9%
Nc1ccc(S(=O)(=O)N2CCOCCOCCOCCOCCOCC2)cc1	-8%	4%
COC(=O)Cc1cc(C)cc2c(=O)cc(-c3ccoc3)oc12	6%	-11%
CN(CCc1ccccn1)C(=O)c1ccc(OC2CCN(Cc3ccccn3)CC2)cc1	-19%	-19%
N#Cc1nc(Cc2ccccc2)oc1NCc1ccccc1	-25%	-13%
Cc1nnc(SC(C)C(=O)NC2CCCc3ccccc32)n1-c1ccccc1 (configuration not stated)	i	-11%
C#CCCOC(=O)N1C2=NC(C(=O)OC)=C(C(=O)OC)[C@@H]3Nc4ccccc4[C@]23C[C@H]1C(=O)OC	i	-10%
NC(=O)C1CCN(C(=O)c2ccc3c(c2)N(Cc2cccc(Cl)c2)C(=O)c2ccccc2S3=O)CC1 (configuration not stated)	-4%	-11%
COc1cc(NC(C)=O)c2ncccc2c1NC(C)=O	-2%	-11%
CCCCOCCCNC(=O)C[C@@H]1C[C@@]2(C(=O)OCC)CCCC=C2N(Cc2ccc3c(c2)OCO3)C1=O	-17%	-15%
CN1CCN(C(=O)/C(C#N)=C/c2ccc(OC(F)F)cc2)CC1	-4%	2%
Cc1ccc(Cn2ccc(NC(=O)c3noc4c3CCc3ccccc3-4)n2)cc1	-11%	-6%
COc1cccc(C(=O)N2C(C(C)C)COc3cc(Br)ccc3S2(=O)=O)c1 (configuration not stated)	-7%	u

Four entries already listed, arranged by molar mass, high to low.
SMILES	Vaccinia mCherry	Vaccinia Venus
CCCCOCCCNC(=O)C[C@@H]1C[C@@]2(C(=O)OCC)CCCC=C2N(Cc2ccc3c(c2)OCO3)C1=O	-17%	-15%
C#CCCOC(=O)N1C2=NC(C(=O)OC)=C(C(=O)OC)[C@@H]3Nc4ccccc4[C@]23C[C@H]1C(=O)OC	i	-10%
O=C(CSc1nnc(-c2ccncc2)o1)Nc1cc(F)ccc1F	i	-17%
OC(C#CCN1CCOCC1)(c1ccccc1)C1CCCC1 (configuration not stated)	x	-12%

Other records.
SMILES | Vaccinia mCherry | Vaccinia Venus
Cc1cccc2nc3ccccc3cc12 | -14% | -9%
CCn1cc(S(=O)(=O)NCCc2ccc(F)cc2)cn1 | i | -4%
COC(=O)c1sc(S(=O)(=O)N2CCN(c3ccc(OC)cc3)CC2)c(C(=O)OC)c1C | -7% | 12%
COc1cccc(-c2nnc(Nc3nc4c(F)cccc4s3)o2)c1 | -12% | -25%
COc1ccc(CNC(=O)C(c2ccco2)N(C(=O)Cc2cccs2)c2cccnc2)cc1 (configuration not stated) | 1% | 3%
CCS(=O)(=O)c1nc(S(=O)(=O)c2ccc(Cl)cc2)c(NCc2ccco2)s1 | -12% | 3%
COc1cccc(C(=O)Nc2ccc(C(=O)OCc3cc(=O)n4nc(C5CC5)sc4n3)cc2)c1 | -17% | -17%
CCOc1ccccc1N(C)C(=O)c1nn(-c2ccc(OC)cc2OC)c(=O)c2ccccc12 | -7% | -16%
Cc1ccc(N=Nc2c(N)nn3c(C)cc(C)nc23)cc1 | -24% | -17%
CCOc1cc(C2C(C(=O)c3ccco3)=C(O)C(=O)N2CCc2ccccc2)ccc1O (configuration not stated) | 1% | 10%
COc1ccccc1S(=O)(=O)N(C)C[C@H]1OCc2cn(nn2)CCCC(=O)N([C@H](C)CO)C[C@@H]1C | i | -16%
COc1cc(C(CC(=O)N2CCCC2)c2c(OC)cc(OC)c3ccc(=O)oc23)cc(OC)c1OC (configuration not stated) | -12% | -4%
CCOc1ccc2cc(C3CC(c4ccco4)=NN3S(=O)(=O)c3ccccc3)c(Cl)nc2c1 (configuration not stated) | i | -14%
CC(C)(C)NC(=O)C1Cc2ccccc2CN1C(=O)Nc1ccccc1Cl (configuration not stated) | -24% | -11%
CC(C)C(=O)OCc1cn(-c2ccc(Cl)c(Cl)c2)nn1 | -1% | 4%
C[C@H]1CN[C@H](CCO)/C1=C\c1ccccc1 | -7% | -12%
CN(C)C(=O)c1cc(C(=O)c2ccccc2C(F)(F)F)c[nH]1 | -12% | -5%
Cn1nnc(NC(=O)c2ccc(C(C)(C)C)cc2)n1 | -21% | -13%
CC(=NNC(=O)c1ccncc1)c1cccc(Cl)c1 | -15% | 0%
O=C(N=C1SC2CS(=O)(=O)CC2N1Cc1ccccc1Cl)C1CC1 (configuration not stated) | -17% | -8%
CC(C)CC1Nc2ccc(C(=O)NCc3ccc4c(c3)OCO4)cc2NC1=O (configuration not stated) | u | -7%
COc1ccc(C(=O)N/N=C/C(=O)c2ccccc2)cc1 | -2% | -21%
N#Cc1ccc(Nc2nc(-c3ccccc3)c(C(=O)c3ccccc3)s2)cc1 | -4% | -26%
O=C(c1ccco1)N1CCN(C2CN(Cc3cn(Cc4ccccc4C(F)(F)F)nn3)S(=O)(=O)C2)CC1 (configuration not stated) | i | -10%
COc1ccc(-c2oc3ncn4nc(-c5ccccc5C)nc4c3c2-c2ccc(OC)cc2)cc1 | i | -14%
Cc1ccc2cc(C=O)c(N(C)C)nc2c1 | -15% | -10%
COc1cccc(NC(=O)C2(C)CCN2C(=O)CC2CCCC2)c1 (configuration not stated) | 18% | -9%
Cc1ccc(S(=O)(=O)C(CNC(=O)COc2ccccc2)c2cccs2)cc1 (configuration not stated) | 1% | -2%
NS(=O)(=O)c1ccc(NC(=O)CN2CCCC2)cc1 | -25% | 5%
COc1ccccc1CCNC(=O)CCc1c(C)c2cc3c(C)coc3c(C)c2oc1=O | -20% | -7%
N#CCCC(CCC#N)(CCC#N)c1cc[n+](CCc2ccccn2)cc1 | i | 1%
O=C(CN1CCOCC1)c1cccc2ccccc12 | 3% | 1%
CC(C)c1ccc(S(=O)(=O)NCc2ccc3c(c2)OCO3)cc1 | i | -8%
O=C(CCc1ccc(O)cc1)c1c(O)cc(O)cc1O | -5%&-17%&-6% | -17%&-21%&-3%
O=C(/C=C/c1ccccc1)N/C(=C/c1ccccc1)C(=O)Nc1cccc(C(=O)O)c1 | -7% | -3%
CCCN(C/C=C/I)C1CCc2cccc(O)c2C1 (configuration not stated) | i | -4%
CCC(C)NC(=O)COc1ccc(S(=O)(=O)N2CCOCC2)cc1 (configuration not stated) | -10% | -9%
Cc1cccc(N2CCN(C(c3cccs3)c3nnnn3C(C)(C)C)CC2)c1C (configuration not stated) | i | 7%
O=C1CCN(c2ccc([N+](=O)[O-])cc2F)CC1 | -6% | 1%
c1ccc(CNc2c3ccccc3nc3ccccc23)cc1 | u | 11µM*
CC(C)(C)NS(=O)(=O)c1ccc2nc(NC(=O)c3cccnc3)sc2c1 | 0% | -1%
COc1ccc2c(c1)c(=O)oc1c(C)c(OCc3ccc(C(=O)O)cc3)ccc12 | -14% | -5%
C[C@@H](c1ccccc1)N1C[C@@H](COCc2ccccc2)Oc2cc(N3CC[C@H](O)C3)ccc2S1(=O)=O | 2% | 6%
CCC1CCC(C(=O)NC(C(=O)NCCCN2CCCCC2C)C(C)C)CC1 (configuration not stated) | i | 16%
CC(=O)C1=C(c2ccccc2)OC(N)=C(C#N)C1c1ccc(O)cc1 (configuration not stated) | i | -6%
CCOc1ccc(/C=C/c2nc(C#N)c(NC3CCCCC3)o2)cc1 | -12% | -17%
COc1ccc(-c2cc(C(=O)NCc3cccnc3)no2)cc1OC | -12% | -7%
CC(C)C(=O)Nc1ccc([N+](=O)[O-])c(C(F)(F)F)c1 | -12%&-19%&-8% | u
Cc1cccc(C(=O)N2CCN(S(=O)(=O)N3CCCCC3)CC2)c1 | -3% | -11%
O=C(NCc1ccc2c(c1)OCO2)c1ccc(Br)s1 | 2% | 0%
O=C(c1ccc(Br)cc1)N(C1=NCCCCS1)c1ccccc1 | x | -1%
COc1ccc(C2C(C(=O)N3CCN(c4ccccn4)CC3)CCC(=O)N2c2ccc(OC)cc2)cc1 (configuration not stated) | -13% | -14%
Cc1ccc(S(=O)(=O)c2nc(-c3ccccc3Cl)oc2N2CCCCCC2)cc1 | -3% | -18%
CCN(CC(=O)NCc1ccc(Cl)cc1)C(=O)CSc1ccc(F)cc1 | -25% | -24%
Cc1ccc(N(C)C(=O)c2cc(S(=O)(=O)N3CCOCC3)cn2C)cc1 | -10% | -9%
O=C(Nc1nnc(S(=O)(=O)N2CCCCC2)s1)c1ccc(Cl)cc1 | -18%&-9% | -17%&-11%
Cc1nn(-c2ccccc2)c(C)c1/C=N/NC(=O)CSc1nnc(-c2ccccc2)n1-c1ccc(Cl)cc1 | -7% | -8%
Cc1ccc(C(C(=O)NCc2ccco2)N(CCc2ccccc2)C(=O)Cn2nnc3ccccc32)o1 (configuration not stated) | x | -21%

Given with two lines to a compound: three of the compounds above
Under each structure: Vaccinia mCherry | Vaccinia Venus
Cc1cccc2nc3ccccc3cc12
  -14% | -9%
COc1ccc(Cl)cc1NC(=O)CN(C)C(=O)Cc1ccsc1
  -2% | -12%
COc1ccc(-c2oc3ncn4nc(-c5ccccc5C)nc4c3c2-c2ccc(OC)cc2)cc1
  i | -14%
